# NPYLR7 ag: activates Aedes aegypti NPYLR7 receptor. activation, % at 10 µM. AID 1259423. hit rate 0.15% among 270,000. HEK293T NPYLR7/Galpha15, GCaMP6s calcium fluorescence; in the data active = activation above about 40%;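 also: 0% = vehicle and 100% = reference agonist at the receptor; some compounds past the cut are filed as inactive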
# NPYLR7 ag max-min: second read-out of NPYLR7 ag, no call of its own (marks repeat the call); activation, %; measured here: Max-Min RFU normalised activation; some inactives read as strong as hits;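 span of the calcium signal over five minutes; 0% = vehicle and 100% = native peptide agonist; compound fluorescence can raise it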
# * marks the source's active call; other numbers are inactive results; & = joins results of further samples. An excerpt. The share of hits here may be higher or lower than overall.
(1) COc1ccc(Br)c(C(=O)Nc2ccc3[nH]cc(CCN4CCOCC4)c3c2)c1
(2) C[C@]1(O)CCC2C3CC(=O)[C@H]4CC(=O)CC[C@]4(C)C3CC[C@@]21C (some centres not stated)
(3) CC(=O)Oc1ccc(/C=C/c2cc(OC(C)=O)cc(OC(C)=O)c2)cc1
(4) NC1=NC2(CCNCC2)C(=O)N1
(5) Cc1ccccc1CC(=O)N1CCN(CCN2C(=O)CCC2=O)CC1
(6) COc1cccc(CC(C)NC(=O)C(=O)Nc2cc(F)ccc2F)c1 (configuration not stated)

compound no. | 1 | 2 | 3 | 4 | 5 | 6
NPYLR7 ag | 24 | 0 | -4 | 1 | 1 | -18
NPYLR7 ag max-min | 34 | -2 | -11 | -1 | 13 | -10

(7) COc1cccc(CN2CCCC(C(=O)c3ccc(Cl)cc3)C2)c1O (configuration not stated)
(8) Cc1ccc(-n2c(-c3ccc4ccccc4c3)nc3ccccc3c2=O)cc1
(9) N#Cc1ccc(CN2CC=C(c3ccc(O)cc3)CC2)c(F)c1
(10) CCCOCCNC(=O)C12CNCC1CNC2 (configuration not stated)
(11) CNC(=O)CSP(=S)(OC)OC
(12) COC(=O)CCCC(=O)N1CC2CC(C1)c1cccc(=O)n1C2 (configuration not stated)

compound no. | 7 | 8 | 9 | 10 | 11 | 12
NPYLR7 ag | 6 | 4 | -3 | 3 | -4 | 3
NPYLR7 ag max-min | 5 | 2 | -5 | 7 | -9 | 2

(13) CCn1nc(C)c(Br)c1C(=O)N1CCN(CCOC(c2ccccc2)c2ccccc2)CC1
(14) C[C@]12CCC(=O)C=C1C=CC1C2CC[C@@]2(C)C1CC[C@@]2(O)CCC(=O)O (some centres not stated)
(15) COc1ccc(N2C(=O)/C(=C/c3ccc(OC)c(OC)c3)C(=O)NC2=S)cc1
(16) COc1ccccc1Sc1ccccc1CC(C)N (configuration not stated)
(17) CN1/C(=C/P(=S)(c2ccccc2)N2CCOCC2)C(C)(C)c2ccccc21 (configuration not stated)
(18) CCn1nnc2c(N3CCN(C)CC3)ncnc21

compound no. | 13 | 14 | 15 | 16 | 17 | 18
NPYLR7 ag | 23 | -15 | -6 | -5 | 8 | 14
NPYLR7 ag max-min | 28 | -15 | -8 | -4 | 5 | 6

(19) CCC(N)C(O)c1ccc(O)c(O)c1 (configuration not stated)
(20) CCCCCCCCCCNCCC (tested in a mixture with another compound)
(21) C#C[C@H]1CN2CC[C@H]1C[C@@H]2CNC(=S)Nc1ccc(C#N)cc1
(22) N#Cc1ccc(S(=O)(=O)NNc2ncc(C(F)(F)F)cc2Cl)cc1Cl
(23) Cc1nn(C(C)(C)C)c(C)c1C(=O)NC1CCSc2c(F)cccc21 (configuration not stated)
(24) Oc1cc(O)cc(CN2CCN(CCOC(c3ccc(F)cc3)c3ccc(F)cc3)CC2)c1

compound no. | 19 | 20 | 21 | 22 | 23 | 24
NPYLR7 ag | 42 | -6 | 7 | -1 | -20 | -5
NPYLR7 ag max-min | 28 | -2 | 6 | -6 | -20 | -2

(25) Cc1nc(C(C)C)ncc1C(=O)N1CCC2(CCN(C)C2)CC1
(26) CCOP(=O)(OCC)C(N)c1ccc(Cl)cc1 (configuration not stated)
(27) CNC(=O)c1nn(Cc2ccc(S(=O)(=O)N3CCCCC3)cc2)c2ccccc12
(28) Cc1cc(NC(=O)c2cccn(Cc3ccc(Cl)cc3)c2=O)c2ccccc2n1
(29) CCN(Cc1ccc(F)cc1)C(=O)C(C)N1CCCC1=O (configuration not stated)
(30) OC12CCCCC1CNCC2 (configuration not stated)

compound no. | 25 | 26 | 27 | 28 | 29 | 30
NPYLR7 ag | -1 | 3 | 15 | 12 | -5 | -3
NPYLR7 ag max-min | -3 | 2 | 22 | 5 | -6 | 0

(31) CC(=O)c1ccc(C(=O)N2C[C@H](c3ccccc3)[C@@H]3[C@H]2C2CCN3CC2)s1
(32) CC1(C)CC2=NN(c3ccccc3)P(=S)(Nc3nccs3)C2=C(N2CCCC2)C1 (configuration not stated)
(33) O=C(COc1ccc(Cl)cc1)N1CCN(C(C(=O)N2CCCC2)C2CCCC2)CC1 (configuration not stated)
(34) Oc1cc(Cl)ccc1Oc1ccc(Cl)cc1Cl
(35) CCc1c(C(=O)OC)ncc2[nH]c3cc(OC)c(OC)cc3c12
(36) N#CCCN

compound no. | 31 | 32 | 33 | 34 | 35 | 36
NPYLR7 ag | 6 | 2 | -7 | 17 | -5 | 6
NPYLR7 ag max-min | 3 | 1 | -6 | 7 | -17 | -9

(37) O=C(O)c1cccnc1CN1CCC(n2nnc3ccccc32)CC1
(38) CN1C(=CP(=S)(c2ccccc2)N2CCOCC2)C(C)(C)c2ccccc21 (configuration not stated)
(39) COC(=O)c1cccc(CN2CCO[C@@H]3CCCC[C@H]32)n1
(40) COc1cc(C=C2C(=O)NC(=S)NC2=O)cc(Br)c1OC
(41) NC1(c2nc(CC3CCCO3)no2)CCCCC1 (configuration not stated)
(42) Nc1ccncc1

compound no. | 37 | 38 | 39 | 40 | 41 | 42
NPYLR7 ag | 5 | 6 | 7 | 0 | -6 | 7
NPYLR7 ag max-min | 3 | 6 | 5 | 5 | -5 | -11

(43) CCCN1CCCC1Cc1ccc(F)cc1 (configuration not stated)
(44) Cc1[nH][nH]c(=O)c1CC(=O)N1CCN(C)C2(CCN(C)CC2)C1
(45) COc1ccc2c(c1)c(C(=O)Nc1ccc(C(N)=O)cc1)nn2Cc1ccc(OCc2ccccc2)cc1
(46) Clc1ccc(NC2=NCCS2)cc1Cl
(47) CCOC(=O)C1C(=N)Oc2cc(O)ccc2C12C(=O)N1c3c(cccc32)C(C)CC1(C)C (configuration not stated)
(48) Cc1cc([P+](=O)O)c(C)n1-c1ccc(Br)cc1

compound no. | 43 | 44 | 45 | 46 | 47 | 48
NPYLR7 ag | 17 | 20 | 1 | 25 | 16 | 6
NPYLR7 ag max-min | 9 | 8 | 13 | 14 | 3 | 17

(49) NC(=O)c1ccccc1NC(=O)c1cccn(Cc2ccccc2Cl)c1=O
(50) CCc1c(C(=O)C(N)=O)c2c(OCC(=O)O)cccc2n1Cc1ccccc1
(51) Cc1sc(-c2ccccc2)nc1CC(=O)N1CCN(CC(=O)NC(C)C)CC1
(52) Cc1ccccc1Cn1cccc(C(=O)Nc2cc(Cl)ccc2C#N)c1=O
(53) Oc1ccc2c3c1O[C@H]1c4oc5ccccc5c4C[C@@]4(O)C(C2)N(CC2CC2)CCC314 (some centres not stated)
(54) Fc1ccc(N2CCN(C[C@H]3CN4CC[C@H]3C[C@@H]4CNC(=S)Nc3ccc(-n4cccn4)cc3)CC2)cc1

compound no. | 49 | 50 | 51 | 52 | 53 | 54
NPYLR7 ag | 14 | -7 | 0 | 11 | 2 | -11
NPYLR7 ag max-min | 7 | -13 | -4 | 0 | -26 | -16

(55) CNC(C)(C)Cc1ccccc1
(56) N#Cc1cc2ccc(O)cc2oc1=O
(57) O=P1(N2CCOCC2)C=C(c2ccccc2)c2cc(Cl)ccc2O1 (configuration not stated)
(58) CNC(=O)c1ccc(CN2CC=C(c3cnn(-c4ccccc4C)c3)CC2)o1
(59) OC(c1ccccc1)(c1ccccc1)C1CN2CCC1CC2 (configuration not stated)
(60) CCCc1ccc(S(=O)(=O)N2CCN(CCOC(c3ccccc3)c3ccccc3)CC2)cc1

compound no. | 55 | 56 | 57 | 58 | 59 | 60
NPYLR7 ag | -8&1 | 24 | 3&4 | 21 | 17 | 3
NPYLR7 ag max-min | -14&-3 | 20 | 2&0 | 15 | 5 | -1

(61) O=C(c1ccccn1)C1CCCN(Cc2ccc(-n3ccnc3)cc2)C1 (configuration not stated)
(62) N#Cc1ccc(NC(=O)c2ccc(Cl)cc2F)cc1Cl
(63) O=C(N1CC2CC(C1)c1cccc(=O)n1C2)n1ccnc1 (configuration not stated)
(64) CC(C)(C)c1nn(C(C)(C)C)c2c1C(c1ccccc1F)SCC(=O)N2CC(=O)NCc1cccnc1 (configuration not stated)
(65) c1ccc2c(c1)Nc1ccccc1S2
(66) COc1ccc(-c2nc3ccccc3c(=O)n2-c2cccc(C)c2)cc1F

compound no. | 61 | 62 | 63 | 64 | 65 | 66
NPYLR7 ag | 1 | 2 | 6 | 4 | -3&-17 | 1
NPYLR7 ag max-min | -4 | 0 | 6 | -5 | -7&-4 | -3
